From PubChem BioAssay
Vero = viability loss in Vero cells – cytotoxicity control for Vif-APOBEC3G degradation inhibitor project, dose response (AID 1117358); hit rate 7% among 2,300; Vero viability, CellTiter-Glo ATP luminescence, 72 h; reference of the scale not given here; viability, % at the top dose, mostly 40 µM; hits show CC50 in µM;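 active = viability down to 80% or less at some dose; inactive = above 80% at all doses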
Numbers without * were called inactive. This is a subset (hit frequency here may not be typical).

| SMILES | Vero |
| --- | --- |
| Cc1ccc(C(=O)COC(=O)CNC(=O)C(c2ccccc2)c2ccccc2)cc1[N+](=O)[O-] | 97.2% |
| CS(=O)(=O)N1CCC(C(=O)Nc2ccccc2)CC1 | 101.1% |
| C=CCNc1nc2ccccc2nc1NS(=O)(=O)c1cccs1 | 92.6% |
| CC(OC(=O)c1cccnc1)C(=O)NCc1ccc2c(c1)OCO2 (stereo not given) | 93.2% |
| O=C1c2cccnc2C(Nc2ccccc2)N1Cc1ccco1 (stereo not given) | 100.7% |
| CS(=O)(=O)N1CCN(c2ccccc2NC(=O)CSc2ccc(Cl)cc2)CC1 | 88.0% |
| CC(=O)Nc1ccc(S(=O)(=O)Nc2cccc(-c3nc4ccccc4o3)c2)cc1 | 103.2% |
| O=C(O)c1ccc(Cl)c2c1C1C=CCC1C(c1ccccn1)N2 (stereo not given) | 114.9% |
| CCCC(=O)Nc1ccc(Br)cn1 | 101.9% |
| CCCn1c2ccccc2c2nnc(SC(CC)C(=O)Nc3sc4c(c3C#N)CCCC4)nc21 (stereo not given) | 97.1% |
| CCOC(=O)/C=C1\SCC(=O)N1CC(=O)NC(C)c1ccc(F)cc1 (stereo not given) | 99.5% |
| CCC(C)N1C(=O)S/C(=C/c2ccc(Sc3nc4ccccc4[nH]3)o2)C1=O (stereo not given) | 28.7µM* |

The results go on:
| SMILES | Vero |
| --- | --- |
| CCOC(=O)N1CCC(NC(=O)c2ccc(OC)c(CN3CC(=O)N4CCCC4C3=O)c2)CC1 (stereo not given) | 99.7% |
| CC1=CN2C(=N)/C(=C/c3ccc([N+](=O)[O-])o3)C(=O)N=C2S1 | 90.6% |
| COc1ccc(CCN2C(=O)c3cccnc3C2=O)cc1OC | 101.0% |
| Cc1ccc(C2CC(c3cccc(Cl)c3)n3nc(N)nc3N2)cc1 (stereo not given) | 97.9% |
| N#C/C=C\Oc1ccc(Cl)cc1N | 83.0% |
| CCOC(=O)c1sc(C)c2c(=O)n(CCc3ccccc3)nnc12 | 98.8% |
| O=C(Nc1ccc2nc(-c3ccccc3)[nH]c2c1)c1cccs1 | 89.5% |
| CCOC(=O)C1CCN(C(=O)Nc2ccc3nc(-c4ccco4)c(-c4ccco4)nc3c2)CC1 | 108.2% |
| CCOC(=O)Cc1csc(N/N=C\c2cccc(Br)c2)n1 | 89.7% |
| Cc1cccc2c1N(CCCOc1ccc(C(C)(C)C)cc1)C(=O)C2=O | 105.3% |
| CCCCOCCCNC(=O)c1ccc(OCC)cc1 | 103.3% |
| CCc1nnc(NC(=O)c2ccc(-c3ccccc3Cl)o2)s1 | 93.7% |

More compounds.
| SMILES | Vero |
| --- | --- |
| CCCCCCn1c(SCC(=O)c2c(N)n(C)c(=O)n(C)c2=O)nc2ccccc21 | 93.0% |
| Cc1nnc(-c2cnn(-c3ccccc3)c2N)n1Cc1cccc(C(F)(F)F)c1 | 88.8% |
| CCS(=O)(=O)n1nc(-c2ccc(Cl)cc2)nc1SC | 90.8% |
| O=C(CN(c1ccc(F)cc1)S(=O)(=O)c1ccc2c(c1)OCCO2)NCc1ccccn1 | 109.0% |
| Cc1ccc(NC(=O)COc2ccccc2C(=O)Nc2ccccc2)cc1Cl | 85.8% |
| Cc1ccc(C)c2[nH]c(=O)c(CN(Cc3ccc4c(c3)OCO4)Cc3nnnn3Cc3ccco3)cc12 | >40µM* |
| Cc1cccc(C)c1NS(=O)(=O)c1c(C)[nH]c(=O)[nH]c1=O | 95.0% |
| COc1ccc(C(C(C(=O)c2cccs2)N2CCOCC2)N2CCOCC2)cc1OC (stereo not given) | 94.8% |
| CN(Cc1ccccc1)C(=O)c1cccc(N2C(=O)NC3CC2(C)Oc2ccccc23)c1 (stereo not given) | 95.4% |
| COc1ccc(C2CC(c3cccs3)n3nc(N)nc3N2)cc1 (stereo not given) | 95.5% |
| COc1cc(-c2cccs2)cc(=O)c2c(C)oc(C)c12 | 104.9% |
| O=C(OCc1c(Cl)cccc1Cl)c1cccnc1Cl | 98.2% |

(more compounds)
| SMILES | Vero |
| --- | --- |
| CCN(CC)CCN1C(=O)c2ccccc2NC1c1ccc(N(C)C)cc1 (stereo not given) | 90.5% |
| Cc1nc2ccc(S(=O)(=O)NC(C(=O)N3CCC(C)CC3)C(C)C)cc2s1 (stereo not given) | 107.3% |
| CCNS(=O)(=O)c1ccc(NS(=O)(=O)c2cc(C)ccc2C)cc1 | 92.9% |
| O=C(c1coc(=O)c(Br)c1)N1CCCc2ccccc21 | 93.3% |
| O=C(CSc1nc(N2CCCCC2)nc(N2CCCCC2)n1)N1CCc2ccccc21 | 90.4% |
| COc1cc(Cc2cnc(N)nc2N)cc(OC)c1OC | 91.0% |
| CC(C)(C)NC(=O)CSc1nnc(-c2ccncc2)n1Cc1ccccc1 | 95.1% |
| CC(=O)C1=C(O)C(=O)N(Cc2ccco2)C1c1ccc(F)cc1 (stereo not given) | 98.9% |
| COc1cc(CNCCc2ccc(F)cc2)ccc1OCc1ccc(Cl)nc1 | 26.1µM* |
| CCOc1cc(N2CCOCC2)c(OCC)cc1NS(=O)(=O)c1ccc(Cl)s1 | >40µM* |
| CCOC(=O)CSc1nc(CC)nc2ccccc12 | 97.5% |
| CN(C)c1ccc(NC(=O)Nc2cccc(Cl)c2)cc1 | 92.6% |

Additional structures
| SMILES | Vero |
| --- | --- |
| COc1ccc(Nc2nc(N)nc(CSC(=S)N3CCN(c4ccccc4)CC3)n2)cc1 | 98.5% |
| Fc1ccc(C(CCCn2nnc(-c3cccnc3)n2)c2ccc(F)cc2)cc1 | >40µM* |
| COc1ccc(CN2C(=O)c3ccccc3C2C(=O)NCc2cccnc2)c(OC)c1 (stereo not given) | 108.0% |
| Cc1cc(O)c(-c2n[nH]c3c2C(c2cccc(O)c2)N(Cc2cccnc2)C3=O)cc1Cl (stereo not given) | 96.7% |
| CCOC(=O)c1c(C)[nH]c(C(=O)COC(=O)CN2C(=O)C3CCCCC3C2=O)c1C (stereo not given) | 98.0% |
| Cn1nc(C(=O)OCC(=O)N2CCc3ccccc32)c2ccccc2c1=O | 99.6% |
| CC(Oc1ccc(Cl)cc1)C(=O)Nc1ncccn1 (stereo not given) | 100.8% |
| CC(=O)c1cccc(NC(=O)CC2Oc3ccc(C)cc3NC2=O)c1 (stereo not given) | 94.0% |
| CC(C)C(C(=O)OCC(=O)c1ccc2c(c1)NC(=O)CO2)N1C(=O)c2ccccc2C1=O (stereo not given) | 93.3% |
| CCNC(=O)NC(=O)C(C)OC(=O)c1oc2ccc(OCC)cc2c1C (stereo not given) | 100.9% |
| O=C1c2ccccc2C(=O)N1CCc1csc(-c2ccc(F)cc2)n1 | 100.7% |
| CCC(C)NS(=O)(=O)c1ccc(NS(=O)(=O)c2ccc(F)cc2)cc1 (stereo not given) | 102.2% |

The list continues:
| SMILES | Vero |
| --- | --- |
| CCSC1=C(C#N)C(c2cccs2)C(C(=O)OC)=C(C)N1 (stereo not given) | 96.0% |
| CC1=C(C(=O)NCc2ccco2)C2(CCC(C)CC2)OC1=O (stereo not given) | 106.8% |
| CCCc1nc2ccccc2c(C(=O)OCC(=O)N2CCc3ccccc32)c1CC | 98.8% |
| O=S(=O)(N1CCOCC1)N1CCCN(S(=O)(=O)N2CCOCC2)CC1 | 97.2% |
| Cc1ccc(CCNC(=O)C2CCC(=O)N2C2CCCC2)cc1 (stereo not given) | 93.8% |
| CCc1c(C(=O)NCc2ccccc2Cl)[nH]c(C)c1C(C)=O | 95.1% |
| O=C(Nc1ccc(-c2noc(-c3cccs3)n2)cc1)c1cccnc1 | 94.6% |
| CCc1nnc(NC(=O)CC(CN(C)S(=O)(=O)c2ccccc2)c2ccccc2)s1 (stereo not given) | 101.2% |
| COC(=O)c1ccc(NC(=O)CN2CCCC2)cc1 | 88.7% |
| Cc1noc(C)c1C(=O)N1CCN(c2ncccn2)CC1 | 108.7% |
| CCn1cc(C(=O)N2CCOCC2)c(=O)c2cc(S(=O)(=O)N(C)C3CCCCC3)ccc21 | 95.6% |
| Cc1ccc(NC(=O)CN2C(=O)N/C(=C/c3ccco3)C2=O)cc1 | 104.5% |

(more compounds)
| SMILES | Vero |
| --- | --- |
| Cc1ccc(S(=O)(=O)N2CCCCC2)cc1C(=O)Nc1ccc2cn[nH]c2c1 | 81.2% |
| COc1ccccc1NC(=O)CSc1nnc(C)n1CCc1ccccc1 | 94.0% |
| COC(=O)CSc1nnc(CNC(=O)Cc2ccccc2)n1C | 90.3% |
| COC(=O)c1cnn2c(C(F)(F)F)cc(-c3ccco3)nc12 | 113.0% |
| Cc1ccc(NCc2nnc(SCC(=O)N(Cc3ccccc3)C(C)(C)C)o2)c(C)c1 | 86.7% |
| CCN(CC)CCCN1CC(O)=C(c2nc3ccccc3s2)C1=N | 92.2% |
| O=C(Nc1ccc2c(c1)OCCO2)N1CCN(c2ccccc2)CC1 | 102.9% |
| Cc1cc(C(=O)CSc2nnnn2-c2ccccc2)c(C)n1CC1CCCO1 (stereo not given) | 111.0% |
| Cc1cc(C#N)c2ccccc2n1 | 96.8% |
| CN1CCN(CCCNC(=O)C2CC(=O)N(C3CCCCC3)C2)CC1 (stereo not given) | 101.2% |
| COCCn1c(N)c(NCc2ccccc2)c(=O)n(CC(=O)Nc2cc(C)ccc2C)c1=O | 95.4% |
| COC(=O)COn1c(-n2nc(C)cc2C)nc2ccccc2c1=O | 97.4% |

Further results follow:
| SMILES | Vero |
| --- | --- |
| O=C(CSc1nnc(-c2cccnc2)n1Cc1ccco1)c1ccc(Br)cc1 | 99.4% |
| COc1cc(NC(=O)c2nnn(Cc3ccc(SC)cc3)c2N)cc(OC)c1 | 82.5% |
| S=C(NCc1ccccn1)Nc1ccc(Cl)c(Cl)c1 | 90.0% |
| CCOC(=O)C(C(=O)OCC)c1cc(Br)c2noc3c2c1C(=O)c1ccccc1-3 | 89.7% |
| CCOc1ccc(N(CC(=O)Nc2ccccc2C(=O)NCc2ccco2)S(C)(=O)=O)cc1 | 93.5% |
| Cc1ccc2nsnc2c1S(=O)(=O)N(CCO)Cc1cc2cc3c(cc2[nH]c1=O)OCCO3 | 93.1% |
| CCOC(=O)Cn1c(=O)n(CC(=O)OCC)c2ccccc21 | 98.7% |
| Cc1ccc(CNC(=O)C2CCCN(S(=O)(=O)c3cnc[nH]3)C2)cc1 (stereo not given) | 95.3% |
| COc1ccc(CC(NC(C)=O)C(=O)NC2CCN(S(=O)(=O)c3cccc4ccccc34)CC2)cc1OC (stereo not given) | 91.7% |
| Cc1nc(OCc2ccccc2)c2ccccc2n1 | 93.2% |
| COc1ccc(Nc2nc3ccccc3nc2-n2nc(C)cc2C)cc1 | 97.9% |
| COc1ccc2cc(C(=O)N3CCOCC3)sc(=O)c2c1OC | 89.3% |

Next structures follow:
| SMILES | Vero |
| --- | --- |
| Cc1ccc(N=Cc2nc(-c3ccco3)oc2O)cc1 | 94.0% |
| COC(=O)c1ccccc1NC(=O)CSCC(=O)Nc1ccccc1 | 100.0% |
| Cc1ccc2cc3c(NC(=O)c4cccnc4)nn(C)c3nc2c1 | 94.0% |
| COc1ccc(-c2noc(Cc3cccs3)n2)cc1 | 94.8% |
| COc1ccc(NC(=O)CN2CCC(C(N)=O)CC2)cc1 | 87.8% |
| CC1(C)Cc2c(c(=S)nc(-c3ccccc3)n2CCCN2CCOCC2)CO1 | 97.3% |
| CC(C)NC(=O)c1ccc(COCC(F)(F)C(F)F)cc1 | 89.5% |
| O=C(C1CCCO1)N1CCC(c2nc3ccccc3[nH]2)CC1 (stereo not given) | 99.9% |
| O=C(CCc1nc(-c2ccccc2F)no1)NC1CCCCCC1 | 102.7% |
| Nc1nc(SCC(=O)OCc2ccccc2)[nH]c(=O)c1NC(=O)c1ccco1 | 97.5% |
| COc1ccc2cc(C(c3nnnn3C3CCCC3)N3CCc4ccccc4C3)c(=O)[nH]c2c1 (stereo not given) | 95.3% |
| COc1ccc(-c2ccc(C#N)c(SCC(=O)Nc3sc4c(c3C#N)CCC4)n2)cc1OC | 101.0% |

Two records drawn at random from the list so far, as already listed:
| SMILES | Vero |
| --- | --- |
| Nc1nc(SCC(=O)OCc2ccccc2)[nH]c(=O)c1NC(=O)c1ccco1 | 97.5% |
| Cc1ccc(N=Cc2nc(-c3ccco3)oc2O)cc1 | 94.0% |

Next entries.
| SMILES | Vero |
| --- | --- |
| Cc1nc(N(C)C)c2sc(=S)n(C)c2n1 | 93.3% |
| CCCNC(=O)c1ccccc1NC(=O)c1ccc(CSc2ccccc2)cc1 | 88.8% |
| COCCSc1nnc(NC(=O)Cc2ccccc2OC)s1 | 99.7% |
| Cc1ccc(N2C(=O)[C@@H]3[C@H](C2=O)[C@H]2C=CC=NN2[C@@H]3C(=O)Nc2ccc(Cl)cc2)cc1 | 106.7% |
| Cc1ccccc1CS(=O)(=O)Cc1ccc(C(=O)N2CCOCC2)o1 | 91.3% |
| Clc1ccc(-c2cn3cccnc3n2)cc1Cl | 89.8% |
| CC1CC(C)CN(C(=O)COC(=O)CNS(=O)(=O)/C=C/c2ccccc2)C1 (stereo not given) | 96.9% |
| O=C(Nc1cccc(C(F)(F)F)c1)c1ccc2nc(-c3ccco3)c(-c3ccco3)nc2c1 | 94.2% |
| Cc1ccc(CNC(=O)C2c3ccccc3C(=O)N3CCc4ccccc4C23)o1 (stereo not given) | 109.0% |
| CC(=O)Nn1cc2c(=O)n(C)c(=O)n(C)c2c1 | 100.5% |
| Cc1cc(C)c([N+](=O)[O-])cc1-c1ccc(/C=N/c2c(-c3ccco3)nc3ccccn23)o1 | 89.5% |
| CCC(Cc1ccccc1)NC(=O)C1CCN(S(=O)(=O)c2c(C)noc2C)CC1 (stereo not given) | 104.0% |

Another view of some results above.
> CCC(Cc1ccccc1)NC(=O)C1CCN(S(=O)(=O)c2c(C)noc2C)CC1 (stereo not given)
  Vero: 104.0%
> CC1CC(C)CN(C(=O)COC(=O)CNS(=O)(=O)/C=C/c2ccccc2)C1 (stereo not given)
  Vero: 96.9%
> Cc1nc(N(C)C)c2sc(=S)n(C)c2n1
  Vero: 93.3%
> Cc1ccc(N2C(=O)[C@@H]3[C@H](C2=O)[C@H]2C=CC=NN2[C@@H]3C(=O)Nc2ccc(Cl)cc2)cc1
  Vero: 106.7%

Next entries.
| SMILES | Vero |
| --- | --- |
| O=C(CCNS(=O)(=O)c1ccc(Cl)cc1)NCc1cccnc1 | >40µM* |
| CC(=O)Nc1ccc(NC(=O)c2sc3nc4c(c(-c5ccc(C)cc5)c3c2N)CCC4)cc1 | 82.5% |
| CCCCCOC(=O)C1=C(C)Nc2nnnn2C1c1ccccc1Cl (stereo not given) | >40µM* |
| CCCCN(CCCC)S(=O)(=O)c1ccc(NC(=O)Cc2cccs2)cc1 | 82.2% |
